Screening data from PubChem BioAssay.
Sa ugtP lethal: kills S. aureus RN4220 lacking UgtP. S. aureus RN4220 ugtP deletion, OD600 growth, 16 h; some inactives read as strong as hits. growth inhibition, % (test concentration not listed). 0.54% of 330,000 active. AID 1259309;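 active = z-score under -3 and OD600 up to 0.15 on both plates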;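 note: plate controls were untreated wells for no effect and antibiotic for full effect; wells of about 80 µL received 100 nL stock; the first replicate is given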
Mtb hypoxia inh: Mtb hypoxia fluorescent reporter inhibition. M. tuberculosis hypoxia-regulated fluorescent reporter, fluorescence. fluorescence inhibition, % (test concentration not listed). 0.1% of 300,000 active;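 active = 35 to 45% if threefold the growth effect, above 45% if 1.5-fold the growth effect; inactive = the rest, general growth blockers included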;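 note: wells of about 50 µL received 100 nL stock; 0% = vehicle wells and 100% = reference inhibitor wells; whole bacteria with a GFP reporter of the hypoxia response; strong numbers were not always called active; many hits fall short of the cut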
PrP 5UTR inh: suppresses PrP 5' UTR mRNA reporter expression; cell-based PrP 5' UTR mRNA reporter, plate reader; inhibition, % (no concentration beside the values); 0.35% of 340,000 active;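 active = every replicate at 50% or more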;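 note: 0 = median of the neutral control wells; tested in H4 reporter cells; numbers are from one replicate; inactives centre near -14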
Autofluor counter: counter-screen for toxin protease inhibitors: compound fluorescence; compound autofluorescence counterscreen, microsphere flow cytometry; active compounds read high; fluorescence intensity (test concentration not listed); 3.1% of 360,000 active; AID 624483;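 active = at least 3 SD above the mean of all compounds, about 16000 in these data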;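 note: 100 nL of 1 mM stock went into each well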
Sa RN4220 lethal: kills Staphylococcus aureus RN4220; S. aureus RN4220 growth, OD600, 16 h; inhibition, % (no concentration beside the values); 0.33% of 330,000 active;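 active = z-score of -3 or lower and OD600 up to 0.18 on both plates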;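 note: plate controls were untreated cells for no effect and reference antibiotic for full effect; stock transfer was 100 nL into about 80 µL; one replicate is shown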
BJeLR lethal: BJeLR cell viability loss. BJeLR (HRASV12) viability, CellTiter-Glo ATP luminescence, 48 h; reference of the scale not given here. inhibition, % (test concentration not listed). 0.17% of 300,000 active;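 active = replicate mean above 50%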;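 note: 50 nL library stock added to about 25 µL; numbers are from one replicate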
Mtb hypoxia inh growth: further read-out of Mtb hypoxia inh, marked with its call; growth inhibition, %; measured here: M. tuberculosis growth (absorbance);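 0% = vehicle and 100% = reference antibiotic; read after six days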
* = called active by the depositor; x = not tested or not shown.

Values in the order – Sa ugtP lethal	Mtb hypoxia inh	Mtb hypoxia inh growth	PrP 5UTR inh	Autofluor counter	Sa RN4220 lethal	BJeLR lethal
(1) COc1ccc(C(=O)COC(=O)CCn2nnc(-c3cccc(O)c3OC)n2)cc1
 : -3	6	4	-20	9576	1.8	-2
(2) Cc1cccc(C)c1NC(=O)CN(C)C(=O)CC1CC2CCC1C2 (stereo unspecified)
 : 4	7	10	-16	5428	2.3	x
(3) CC(O)COc1ccc(/C(=N/O)c2ccccc2)cc1 (stereo unspecified)
 : x	x	x	-31	3256	x	-14
(4) CC1(C)Cc2c(C#N)c(SCC(=O)c3ccccc3)nc(N3CCOCC3)c2CO1
 : 4	x	x	10	2041	0.4	x
(5) Cc1ccc(S(=O)(=O)NN2C(=O)c3ccccc3NC2c2ccccc2O)cc1 (stereo unspecified)
 : 1	3	8	-29	3941	1.4	3
(6) NC(N)=NN=C1CCC(c2ccccc2)CC1 (stereo unspecified)
 : 3	0	-13	0	3649	-4.5	0
(7) CCOCCCNC(=O)CN1C(=O)COc2ccc(S(=O)(=O)N3CCCCCC3)cc21
 : 0	3	7	3	5369	2.0	2
(8) CN1C(=O)/C(=C/c2ccccc2OCc2cccc(F)c2)NC1=S
 : 7	x	x	-11	2658	-3.5	1
(9) CSC1=NCCN1C(=O)Cc1ccc(Cl)cc1
 : 7	x	x	-21	5824	-0.5	5
(10) CC(C)(C)OC(=O)CNC(=O)c1[nH]cnc1C(=O)Nc1ccc(Cl)cc1
 : 2	2	12	-10	4226	-0.9	-1
(11) CCCc1c(C(=O)Nc2ccc(OC)cc2)cnn1-c1ccccc1
 : 14	0	2	-16	4450	1.2	5
(12) C/C(=N/NC(=O)c1ccc2c(c1)OCO2)c1cccc([N+](=O)[O-])c1
 : x	x	x	-68	5683	x	-2
(13) Cc1c(F)cccc1NC(=O)CCCCCC1NC(=O)NC1C (stereo unspecified)
 : 4	2	2	-5	1860	16	23
(14) CSc1nc(N)nc2c1ncn2CC(=O)NCC1CCCO1 (stereo unspecified)
 : -2	-10	2	-9	3221	3.2	x
(15) CCOc1ccc(NC(=O)Nc2cccn(Cc3ccccc3)c2=O)cc1
 : 1	0	17	-26	4409	1.3	6
(16) Cc1occc1C(=O)NN=C/C=C/c1ccc(N(C)C)cc1
 : -8	12	27	x	x	-1.6	x
(17) COCc1nnc(NC(C)=O)s1
 : -2	-3	5	-32	4792	0.7	-7
(18) C(=N\Nc1nc2ccccc2[nH]1)/c1ccc2c(c1)OCCO2
 : x	x	x	-25	3705	x	16
(19) O=C(Nc1ccccc1F)c1ccncc1
 : 7	x	x	-7	2672	2.0	9
(20) O=C(O)c1ccc(/C=N/NC(=O)c2ccc(Br)cc2)cc1
 : x	x	x	-27	2322	x	15
(21) Cc1ccc(-n2c(=O)c3sccc3n(Cc3cc(=O)n4ccccc4n3)c2=O)cc1
 : 5	1	2	-1	2180	6.5	9
(22) C[C@H](NC(=O)c1nc[nH]c1C(=O)NC1CCNCC1)C(=O)OC(C)(C)C
 : -5	3	8	-12	3960	-14	3
(23) C=CCn1c(SCC(=O)c2cc(C)n(C(C)COC)c2C)nc2sc(C)c(C)c2c1=O (stereo unspecified)
 : -4	2	9	-22	19713*	1.2	11
(24) Cn1nnnc1SCC(=O)Nc1ccccc1Br
 : 4	3	-3	7	6161	2.1	-4
(25) CC(C)C1=NN2C(=N)CC(=O)N=C2S1
 : -1	0	-5	-3	9474	2.9	1
(26) COc1ccccc1CCNC(=O)CNC(=O)c1ccc2ccccc2c1
 : 6	0	-2	-10	3727	3.8	-1
(27) Cc1sc2nc(SCC(=O)NCCO)n(-c3ccccc3)c(=O)c2c1C
 : 14	5	3	-20	4116	1.0	6
(28) CC(=NNC(=O)c1ccc(CSc2nc(C)cc(C)n2)cc1)C1CCCCC1
 : 11	14	11	x	x	5.6	x
(29) NS(=O)(=O)c1ccc(NC(=O)c2ccc3nccnc3c2)cc1
 : 7	2	-2	-27	4024	-0.9	10
(30) O=C(CSc1nc2ccc(N3CCOCC3)cc2c(=O)n1CCc1ccccc1)NCC1CCCO1 (stereo unspecified)
 : 2	-6	7	-15	3659	-2.8	3
(31) CN(c1ccc(OCC(=O)OCC(=O)Nc2ccccc2F)cc1)S(=O)(=O)c1cccs1
 : 2	-2	3	0	10265	11	-9
(32) COC1=C/C(=C/c2c(N)n3nc(CC(=O)N4CCOCC4)sc3nc2=O)C=CC1=O
 : -1	0	14	-1	5650	0.9	0
(33) NCCOc1ccccc1Cc1ccccc1
 : -7	4	3	-21	3524	5.3	-3
(34) Cc1c(C(=O)NC(=S)NCC(C)C)oc2ccccc12
 : 3	14	-2	-60	2454	4.2	-12
(35) COc1ccc(C(C)=O)cc1CSc1nc2ccccc2c(=O)n1-c1cccc(C)c1
 : 8	-4	4	-12	2610	4.9	-5
(36) CCOC(=O)c1cnc2c(C(F)(F)F)cccc2c1N1CCOCC1
 : -5	x	x	1	4867	1.3	3
(37) CC(C(=O)NC1CCCC1)N(C(=O)Cn1nnc(-c2ccc(F)cc2)n1)c1ccccc1F (stereo unspecified)
 : 2	16	-1	-5	4115	3.6	5
(38) COC(=O)c1ccc(-n2c(C)cc(-c3csc(NC(=O)c4ccc(S(=O)(=O)N(C)C)cc4)n3)c2C)cc1
 : -8	-7	4	1	10293	8.2	-21
(39) COC(=O)c1c(C)[nH]c(C(=O)/C=C/c2ccccc2)c1C
 : -4	5	12	-97	2456	5.2	13
(40) O=C(NNC(=O)c1cc2cc3ccccc3nc2s1)c1cccc(Cl)c1
 : -15	x	x	9	2033	5.5	5
(41) CCS(=O)(=O)c1ccc2c(c1)N(S(C)(=O)=O)CC(C(=O)NCCOC)O2 (stereo unspecified)
 : 1	10	1	-14	3037	-2.1	0
(42) COc1ccc(NC(=O)NC2(C)CCS(=O)(=O)C2)cc1 (stereo unspecified)
 : 9	6	6	-19	6054	1.0	-7
(43) Cc1cc(C)c(S(=O)(=O)c2cccc(C)c2C)c(=O)[nH]1
 : 7	3	8	x	3377	5.2	-14
(44) Cc1ccc(C(=O)OCc2cn(-c3ccccc3)nn2)cc1
 : -4	-1	3	-18	4433	4.2	2
(45) Nc1ccc(C(=O)NC23CC4CC(CC(C4)C2)C3)cc1
 : 0	-3	7	-14	3699	-1.9	-3
(46) COC(=O)c1sccc1-n1cccc1C(=O)C(=O)Nc1ccc(F)cc1
 : 13	15	5	-16	4286	1.0	-2
(47) Cc1ccc(C(=O)NC(N(C)C)C(Cl)(Cl)Cl)cc1 (stereo unspecified)
 : 10	-3	2	-6	2051	4.0	-10
(48) CC(C)(C)OC(=O)NCCCCC(NC(=O)c1[nH]cnc1C(=O)Nc1ccccc1)C(=O)OC(C)(C)C (stereo unspecified)
 : -2	-3	6	x	x	-4.7	x
(49) CC(=O)C[C@H](O)CC(=O)[C@H]1OC(=O)CCCCCc2ccccc21
 : 11	-9	-2	-26	2899	3.0	x
(50) CC1CN(c2ccccc2)CCN1Cc1nc(Cc2ccccc2)no1 (stereo unspecified)
 : 6	7	2	-36	4697	1.0	-2
(51) Cc1ccccc1OCC(=O)N/N=C/c1ccco1
 : x	x	x	3	6850	x	5
(52) Cc1ccc(C)n1-c1ncn[nH]1
 : 0	3	3	-26	8177	0.7	-7
(53) Cc1csc2nc(CNS(=O)(=O)c3ccc4c(c3)CCCC4)cn12
 : 5	7	4	-2	5603	10	-10
(54) O=C(NN=Cc1ccccc1Br)c1cccc(S(=O)(=O)N2CCOCC2)c1
 : -8	-7	11	x	x	11	x
(55) CC(CN(C)Cc1nc(Cc2cccc(C(F)(F)F)c2)no1)CN1CCCC1 (stereo unspecified)
 : 5	10	9	-12	4701	3.3	5
(56) CCOc1ccccc1N1CCN(CC=Cc2ccc(N(C)C)cc2)CC1
 : -2	-2	10	x	x	-0.8	x
(57) COc1ccccc1NC(=O)Cc1nnc(SCC(=O)NC2CCCCC2C)n1C (stereo unspecified)
 : 5	-1	-6	-20	6005	0.5	-9
(58) CCOC(=O)CNC(=O)C1Cc2ccccc2CN1S(=O)(=O)c1cccs1 (stereo unspecified)
 : 4	13	5	-16	3142	2.6	-4
(59) O=C(O)CCN1C(=O)c2ccc(NC(=O)Cc3ccc(Cl)cc3)cc2C1=O
 : 2	2	15	-2	4318	-1.9	9
(60) CCN1CCc2c(sc(NC(=O)C3CCCCC3)c2C(=O)OC)C1
 : 3	0	-6	-9	5833	-8.8	2

(next part)
Values in the order – Sa ugtP lethal	Mtb hypoxia inh	Mtb hypoxia inh growth	PrP 5UTR inh	Autofluor counter	Sa RN4220 lethal	BJeLR lethal
(61) Cc1cc(C)n(CC(=O)NCc2ccccc2)c(=O)c1C#N
 : 5	10	3	-7	x	1.6	-17
(62) COc1ccc(S(=O)(=O)NCCSCc2ccccc2C)cc1Br
 : -1	4	4	-4	16146*	5.0	1
(63) Cc1ccc(C(=O)COC(=O)CNS(=O)(=O)c2ccccc2)cc1[N+](=O)[O-]
 : -2	x	x	-12	2845	-3.3	4
(64) Cc1cc(N)n2nc(-c3ccc(C(C)(C)C)cc3)cc2n1
 : 4	x	x	-119	2913	1.2	10
(65) O=C(CSc1nc2ncccc2[nH]1)Nc1c(F)cc(F)cc1Br
 : 4	0	6	-3	5327	3.3	6
(66) CC(=O)c1c(C)c2c(n1CCN(C)C)CCCC2
 : -3	x	x	-4	2708	4.8	0
(67) CCN(CC)CCn1c(=N)n(CC(O)COc2ccccc2)c2ccccc21 (stereo unspecified)
 : 3	15	9	-13	4013	3.9	5
(68) O=C(O)c1nccnc1C(=O)Nc1ccc(Cl)cc1Cl
 : 6	14	1	-3	3007	0.2	-3
(69) O=C1C=C(c2ccc(F)c(Cl)c2)CC(c2ccc(F)cc2)C1 (stereo unspecified)
 : -23	4	3	x	x	-4.5	x
(70) CSCC[C@H](NC(=O)c1cccc(S(=O)(=O)N2CCCCCC2)c1)c1nc2ccccc2[nH]1
 : 15	7	9	-12	3626	1.5	x

Grouped by structure, the compounds so far containing two or more sulfur atoms.
Values in the order – Sa ugtP lethal	Mtb hypoxia inh	Mtb hypoxia inh growth	PrP 5UTR inh	Autofluor counter	Sa RN4220 lethal	BJeLR lethal
(23) C=CCn1c(SCC(=O)c2cc(C)n(C(C)COC)c2C)nc2sc(C)c(C)c2c1=O (stereo unspecified)
 : -4	2	9	-22	19713*	1.2	11
(27) Cc1sc2nc(SCC(=O)NCCO)n(-c3ccccc3)c(=O)c2c1C
 : 14	5	3	-20	4116	1.0	6
(31) CN(c1ccc(OCC(=O)OCC(=O)Nc2ccccc2F)cc1)S(=O)(=O)c1cccs1
 : 2	-2	3	0	10265	11	-9
(38) COC(=O)c1ccc(-n2c(C)cc(-c3csc(NC(=O)c4ccc(S(=O)(=O)N(C)C)cc4)n3)c2C)cc1
 : -8	-7	4	1	10293	8.2	-21
(41) CCS(=O)(=O)c1ccc2c(c1)N(S(C)(=O)=O)CC(C(=O)NCCOC)O2 (stereo unspecified)
 : 1	10	1	-14	3037	-2.1	0
(53) Cc1csc2nc(CNS(=O)(=O)c3ccc4c(c3)CCCC4)cn12
 : 5	7	4	-2	5603	10	-10
(58) CCOC(=O)CNC(=O)C1Cc2ccccc2CN1S(=O)(=O)c1cccs1 (stereo unspecified)
 : 4	13	5	-16	3142	2.6	-4
(62) COc1ccc(S(=O)(=O)NCCSCc2ccccc2C)cc1Br
 : -1	4	4	-4	16146*	5.0	1
(70) CSCC[C@H](NC(=O)c1cccc(S(=O)(=O)N2CCCCCC2)c1)c1nc2ccccc2[nH]1
 : 15	7	9	-12	3626	1.5	x
